Screening results deposited in PubChem by several laboratories.
Autofluor counter – counter-screen for toxin protease inhibitors: compound fluorescence. compound autofluorescence counterscreen, microsphere flow cytometry; hits give high values. fluorescence intensity (no concentration beside the values). 360,000 tested, 3.1% active. AID 624483;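 active = at least 3 SD above the mean of all compounds, about 16000 in these data; inconclusive = too few beads counted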;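 note: 100 nL of 1 mM stock went into each well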
Mtb hypoxia rep – Mtb hypoxia fluorescent reporter inhibition; M. tuberculosis hypoxia-regulated fluorescent reporter, fluorescence; fluorescence inhibition, % (no concentration beside the values); 300,000 tested, 0.1% active;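 active = 35 to 45% if threefold the growth effect, above 45% if 1.5-fold the growth effect; inactive = the rest, general growth blockers included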;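 note: wells of about 50 µL received 100 nL stock; 0% = vehicle wells and 100% = reference inhibitor wells; whole bacteria with a GFP reporter of the hypoxia response; strong numbers were not always called active; many hits fall short of the cut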
BJeLR lethal – kills HRASV12-expressing BJeLR cells; BJeLR (HRASV12) viability, CellTiter-Glo ATP luminescence, 48 h; reference of the scale not given here; AID 1554; inhibition, % (test concentration not listed); 300,000 tested, 0.17% active;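 active = replicate mean above 50%; inconclusive = above 50% but judged a plate artefact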;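 note: 50 nL library stock added to about 25 µL; numbers are from one replicate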
Sa ugtP lethal – kills S. aureus RN4220 lacking UgtP; S. aureus RN4220 ugtP deletion, OD600 growth, 16 h; some inactives read as strong as hits; growth inhibition, % (no concentration beside the values); 330,000 tested, 0.54% active;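 active = z-score under -3 and OD600 up to 0.15 on both plates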;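 note: plate controls were untreated wells for no effect and antibiotic for full effect; wells of about 80 µL received 100 nL stock; the first replicate is given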
Sa RN4220 lethal – S. aureus RN4220 growth inhibition; OD600, 16 h; inhibition, % (concentration not given with the values); 330,000 tested, 0.33% active;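 active = z-score of -3 or lower and OD600 up to 0.18 on both plates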;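 note: plate controls were untreated cells for no effect and reference antibiotic for full effect; stock transfer was 100 nL into about 80 µL; one replicate is shown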
PrP UTR inh – suppresses PrP 5' UTR mRNA reporter expression. cell-based PrP 5' UTR mRNA reporter, plate reader. inhibition, % (concentration not given with the values). 340,000 tested, 0.35% active. AID 488862;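 active = every replicate at 50% or more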;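 note: 0 = median of the neutral control wells; tested in H4 reporter cells; numbers are from one replicate; inactives centre near -14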
Mtb hypoxia rep growth – second read-out of Mtb hypoxia rep, no call of its own (marks repeat the call); growth inhibition, %; measured here: M. tuberculosis growth (absorbance);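 0% = vehicle and 100% = reference antibiotic; read after six days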
* hit, by the source's call; u = inconclusive; x = not tested or not shown; & = joins results of further samples.

compound	Mtb hypoxia rep growth	PrP UTR inh	Mtb hypoxia rep	Autofluor counter	Sa ugtP lethal	Sa RN4220 lethal	BJeLR lethal
O=C(NN=C1CCCCCCC1)c1ccccn1	9	-20	2	5953	-1	5.6	-3
CCOCCCNC(=O)C1CCCN(S(=O)(=O)c2ccc(-n3cnnn3)cc2)C1 (configuration not stated)	2	-19	-14	5541	0	2.2	6
Cc1ccc2c(CN3CCN(S(=O)(=O)c4ccccc4C(F)(F)F)CC3)cc(=O)oc2c1	-5	-4	0	3000	6	3.7	x
C#CCOCCOCCOCCNc1nc(N2CCN(C(=O)C(CCC(=O)O)n3cc(C(N)Cc4ccc(O)cc4)nn3)CC2)nc(N2CCN(C(=O)C(Cc3cc4ccccc4[nH]3)n3cc(C(N)CC(C)C)nn3)CC2)n1 (configuration not stated)	-1	x	-4	x	-1	1.1	x
Cc1ccc(NC(=O)CSc2nnc(C)n2CC2CCCO2)cc1 (configuration not stated)	-1	-21	-5	3361	-1	-2.8	10
Cc1ccc(N2CCN(S(=O)(=O)c3ccc4c(c3)n(C)c(=O)c(=O)n4C)CC2C)cc1 (configuration not stated)	0	-19	6	9801	1	2.6	2
Oc1ccc(C2=Nn3c(nnc3-c3ccco3)SC2)cc1O	-7	-3	2	3194	8	-4.7	10
COc1ccc2c(c1OC)C(=O)OC2c1c(O)nc(SC)n(-c2ccccc2)c1=O (configuration not stated)	6	-27	6	2176	1	8.1	-2
COc1ccc(NC(=O)CN(C)C(=O)c2ccccc2OC)cc1	2	-15	16	3030	11	3.9	0
Cc1nc2nc(C)c(CCC(=O)NCCCN3CCN(c4cccc(Cl)c4)CC3)c(C)n2n1	6	-22&-12	8	2987&4388	6&0	2.2&3.0	9&3
CC(C)(C)c1nn(-c2ccccc2)c2[nH]c(=O)c(CNCc3ccc4c(c3)OCO4)cc12	11	-16	11	10358	9	0.6	9
Cc1ccc(NC(=O)CCC2CC(C)(C)OC2=O)cc1 (configuration not stated)	4	-38	-7	4564	3	3.8	4
C#CCOC(=O)Nc1cc(C)n(-c2ccccc2)n1	-10	-13	0	4663	5	1.0	-11
COc1cccc(N2CCN(C3OC(=O)c4ccccc43)CC2)c1 (configuration not stated)	6	-17	7	2742	-2	23	1
CCOC(=O)c1ccc2[nH]c3c(c2c1)CCCC3C(=O)OCC (configuration not stated)	10	-13	10	2328	-4	-4.2	-8
CCOC(=O)N1CCN(C(=O)C2CCCN(Cc3nc(-c4ccc(Cl)cc4)oc3C)C2)CC1 (configuration not stated)	x	4	x	6368	-7	-5.5	-5
N#CCN1CCC(c2cc(-c3ccco3)n[nH]2)CC1	-2	x	7	x	2	7.7	0
COc1ccc(CCNC(=O)CC2SC(=NCCc3ccccc3)NC2=O)cc1OC (configuration not stated)	11	-14	-13	2601	-1	0.8	-18
O=C(NNS(=O)(=O)c1ccc(Cl)cc1)c1cc(-c2ccccc2)n[nH]1	-5	-16	7	4254	-10	-0.5	-9
COc1ccccc1Oc1ccc(NC(=O)c2ccc(Cl)cc2)cc1	5	-22	-1	2573	-9	-8.2	2

An excerpt from above in order of SMILES length, smallest number first:
compound	Mtb hypoxia rep growth	PrP UTR inh	Mtb hypoxia rep	Autofluor counter	Sa ugtP lethal	Sa RN4220 lethal	BJeLR lethal
C#CCOC(=O)Nc1cc(C)n(-c2ccccc2)n1	-10	-13	0	4663	5	1.0	-11
Cc1ccc(NC(=O)CCC2CC(C)(C)OC2=O)cc1 (configuration not stated)	4	-38	-7	4564	3	3.8	4
CCOC(=O)c1ccc2[nH]c3c(c2c1)CCCC3C(=O)OCC (configuration not stated)	10	-13	10	2328	-4	-4.2	-8

The listing continues:
compound	Mtb hypoxia rep growth	PrP UTR inh	Mtb hypoxia rep	Autofluor counter	Sa ugtP lethal	Sa RN4220 lethal	BJeLR lethal
Cc1cccc(C)c1OCC(N)C(C)C (configuration not stated)	1	0	-3	6349	-5	1.9	x
Cc1cccc(NC(=O)C2CCCN(S(=O)(=O)c3ccc(-n4cnnn4)cc3)C2)c1 (configuration not stated)	1	-11	5	3955	-5	-3.8	-2
CCOc1ccc(S(=O)(=O)Nc2nc3ccccc3nc2N2CCN(C)CC2)cc1	x	13	x	2074	4	-1.3	-5
CC(=O)Nc1ccc(C(=O)CSc2ncn(-c3ccccc3)n2)cc1	11	-20	-2	2960	-4	1.4	-12
COc1ccccc1N1CCN(/N=C/c2cc([N+](=O)[O-])ccc2Cl)CC1	x	-3	x	4154	x	x	-5
Cc1ccc(S(=O)(=O)c2c(N)n(NC(=O)c3ccco3)c3nc4ccccc4nc23)cc1	2	-8	-6	7456	-6	1.9	x
Cc1cc(C(=O)N/N=C/c2ccccn2)c2ccccc2n1	x	-12	x	5893	x	x	-12
O=C(O)/C(=C\c1ccc(Cl)cc1)c1ccc(F)cc1	2	-20	-2	4283	-7	-7.2	-2
CC(C)c1nnc(NC(=O)c2cnccn2)s1	-16	-20	-10	15993	-7	-6.6	0
COCCn1c(-c2ccc(OC)c(OC)c2)nc2ccccc21	x	-20	x	2823	12	3.5	-13
CCOC(=O)c1ccc2c(c1)C1C=CCC1C(C(=O)OCC)N2 (configuration not stated)	x	-32	x	3119	x	x	-2
COc1ccc(C=NNC(=O)CN2CCCCCCC2)c(C)c1C	8	x	5	x	1	8.9	x
Nc1ncc(-c2ccccc2)n1CC1CCCO1 (configuration not stated)	9	-17	7	3989	-6	1.2	-2
CCN(CC)S(=O)(=O)c1ccc(C(=O)OC2CCCCC2CN(C)C)cc1 (configuration not stated)	-6	-27	10	12656	14	5.3	5
COc1ccccc1C(=O)NCCC(=O)N1CCN(c2cccc(C(F)(F)F)c2)CC1	3	0	-4	u	-1	0.5	2
COC(=O)CC1Nc2ccccc2SC1=O (configuration not stated)	5	-12	0	8614	0	1.6	-17
CCNC(=O)CSc1nc(-c2ccc(F)cc2)cs1	3	-6	7	4167	13	-0.2	-5
CCOC(=O)C(NC(=O)Nc1ccccc1)(OCC)C(F)(F)F (configuration not stated)	x	-7	x	2503	-7	1.9	-2
COc1ccc(-c2c[n+]3c4n2CCCCC4=C(c2ccccc2)C3)cc1	7	0	4	10395	-3	11	10
O=C(O)c1nsc(Cl)c1Cl	x	-13	x	4268	0	3.1	-2
COc1cc(C=NNC(=O)c2cccc(N3CCCC3=O)c2)ccc1O	2	x	0	x	6	-4.5	x
CN(c1ccccc1)c1ccc(/C=C(\C#N)c2nnc3n2CCCCC3)cc1[N+](=O)[O-]	8	-18	11	1859	-1	3.3	30
CNc1ccccc1C(=O)OC	x	2	x	5774	-14	3.9	1
CC(=O)c1ccc(OCc2cc(C(=O)N(C)CCOc3ccc(C)cc3)no2)cc1	6	-69	2	6101	6	2.8	-6
O=C(NCc1ccccn1)C1CC(c2ccccc2O)=NO1 (configuration not stated)	8	-10	0	4847	3	3.9	2
Cn1cc[n+](C)c1COc1ccc(C=O)cc1	2	-16	-3	3219	3	4.1	0
O=C(Cc1cccc(NC(=O)C2CCN(C(=O)C3CCCC3)CC2)c1)Nc1cccc(C(=O)N2CCCC2)c1	14	-11	-1	3637	-5	-8.3	x
Clc1ccc(-c2noc(CSc3nnc(-c4ccncc4)n3-c3ccccc3)n2)cc1	5	-11	0	15379	10	6.4	4
C[C@H](CO)N1C[C@H](C)[C@@H](CN(C)C)Oc2c(NC(=O)Cc3ccccc3)cccc2C1=O	2	-17	4	2878	16	5.3	x
CCN(CC)CCC(c1cc(OC)c(OC)c(OC)c1)c1c(OC)cc(OC)c2ccc(=O)oc12 (configuration not stated)	12	7	22	2993	2	6.3	-3
O=C(CC1C(=O)NCCN1Cc1c(F)cccc1Cl)NCc1ccccc1 (configuration not stated)	-6	-9	0	2638	6	8.2	0
CCc1cc(C(=O)N/N=C/c2ccc(OC)cc2)c2ccccc2n1	x	-11	x	3005	x	x	5
Cc1cccc(C)c1NC(=O)COC(=O)CNC(=O)C1CCCCC1	4	5	6	6103	3	3.8	x
CCOc1ccc(C(=O)O[C@H]2[C@H](Cc3ccccc3)NS(=O)(=O)[C@H]3C[C@@H]4C=C[C@]23O4)cc1	7	-6	-5	3829	6	8.7	x
NS(=O)(=O)c1ccc(NS(=O)(=O)c2ccc(NC(=S)Nc3ccccc3)cc2)cc1	-9	-45	-9	2621	10	6.4	-3
CCC(Oc1ccccc1)C(=O)N(CC)CC(=O)NCc1ccc(F)cc1 (configuration not stated)	8	-4	4	6207	-1	1.3	x
O=c1c2cc(N3CCOCC3)ccc2[nH]c(=S)n1Cc1ccccn1	7	-47	5	5583	0	1.6	7
O=C(O)c1ccc2c(c1)C(=O)/C(=C/c1ccccc1)C2=O	4	-7	14	2297	-2	2.2	0
CCOc1ncccc1C(=O)OCC(=O)N(CC)c1ccccc1	12	-10	1	4377	18	0.9	2
CC(=O)CSc1nc2c(c(=O)[nH]c(=O)n2C)n1Cc1cccc(Br)c1	5	-13	10	4104	12	-1.0	-2

2 compounds picked at random from the list so far:
compound	Mtb hypoxia rep growth	PrP UTR inh	Mtb hypoxia rep	Autofluor counter	Sa ugtP lethal	Sa RN4220 lethal	BJeLR lethal
CCc1cc(C(=O)N/N=C/c2ccc(OC)cc2)c2ccccc2n1	x	-11	x	3005	x	x	5
O=c1c2cc(N3CCOCC3)ccc2[nH]c(=S)n1Cc1ccccn1	7	-47	5	5583	0	1.6	7

(continued)
compound	Mtb hypoxia rep growth	PrP UTR inh	Mtb hypoxia rep	Autofluor counter	Sa ugtP lethal	Sa RN4220 lethal	BJeLR lethal
CC(CCc1ccco1)NC(=O)CCc1nnc2ccc(NCc3ccc(Cl)cc3)nn12 (configuration not stated)	11	-26	9	5744	-1	1.4	4
Cc1ccc(CC2CC(=O)N(c3ccc4c(c3)OCCO4)C2=O)cc1 (configuration not stated)	x	-8	x	4783	4	0.6	-8
Cc1ccccc1C(=O)NC(=S)NCC(=O)c1ccccc1	6	-9	8	3874	-16	2.7	-4
CC(=O)Nc1cccc(-c2nc3ccccc3o2)c1	2	-21	5	3804	-7	5.4	9
Cc1ccc(C(=O)CNc2ccccc2C)cc1	4	1	5	8730	-2	12	10
COC(=O)CSc1nc(C)cc(Oc2ccccc2)n1	2	-48	9	5956	-7	3.1	-7
CCOc1ccccc1NC(=O)COC(=O)c1cc(C)oc1C	10	-7	1	3743	5	4.3	x
CC(=O)c1ccc(NC(=S)Nc2cccc(Cl)c2C)cc1	7	-13	10	5575	5	0.3	5
O=C(COC(=O)c1n[nH]c2ccccc12)NC1CCCCC1	3	-22	3	3904	0	4.3	x
CCOc1ccc(-c2c(=O)n(OCc3ccc([N+](=O)[O-])cc3)c3ccccc3[n+]2[O-])c(OCC)c1	0	-18	9	5753	-1	4.3	-8
CCOC(=O)N1CCN(C(=O)COC(=O)c2ccc(N(C)C)cc2)CC1	11	-13	8	7985	4	1.7	x

No enrichment for hits. Share with any hit: about 4.1%.
